Source: PubChem BioAssay (several laboratories)
Bfl-1 A1 inh: caspase 3/7 activation in MEF A1-2A-BIM cells, primary screen, A1 inhibitor project, cell-based, luminescence, HTS. caspase activation, % (test concentration not listed). Caspase-Glo 3/7 luminescence, 3 h; percent of clofoctol response, vehicle zero. actives 0.066% (n = 330,000);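 active = over half of replicate activation scores above 10%, or exactly half above 10 with the replicate mean above 10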;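 also: wells of about 30 µL received 50 nL stock; many hits fall short of the cut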
Beta2AR agonist: beta2AR agonists driving receptor internalization, primary screen, cell-based, FAP fluorogen, flow cytometry | actives 0.43% (n = 340,000) | Beta-2 adrenergic receptor (Homo sapiens), P07550 | AID 504454, 2011 | response, % (no concentration beside the values) | Am2.2-beta2AR cells; reference of the scale not given here;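 active = response above a set limit, near 3 SD of response in nonfluorescent compounds, cut at about 42% in these data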;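 also: stock transfer was 100 nL into about 11 µL; a reference agonist was the positive control; negative values mostly stem from fluorescent compounds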
Target sequence (P07550 whole entry, looked up): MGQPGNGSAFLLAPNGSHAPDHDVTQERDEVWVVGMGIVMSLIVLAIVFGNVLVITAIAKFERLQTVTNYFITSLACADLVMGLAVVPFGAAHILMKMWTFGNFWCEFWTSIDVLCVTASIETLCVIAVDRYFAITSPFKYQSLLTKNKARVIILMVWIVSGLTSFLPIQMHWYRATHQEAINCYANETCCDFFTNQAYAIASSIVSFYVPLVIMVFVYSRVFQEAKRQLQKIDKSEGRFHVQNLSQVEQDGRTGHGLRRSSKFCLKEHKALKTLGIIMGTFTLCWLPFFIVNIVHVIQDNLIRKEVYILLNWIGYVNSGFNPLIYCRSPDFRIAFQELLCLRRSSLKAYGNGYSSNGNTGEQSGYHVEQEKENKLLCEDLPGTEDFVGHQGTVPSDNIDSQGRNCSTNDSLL
T cruzi repl: inhibitors of intracellular T. cruzi growth, primary screen, luminescence, NIH3T3 host cells; T. cruzi beta-gal in NIH3T3, 90 h; inhibition, % (concentration not given with the values); actives 1.4% (n = 300,000); AID 1885, 2009;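 active = mean inhibition across valid replicates above about 55%, limit read from the data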;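 also: signal also drops with host cell toxicity which is not excluded here; 0% = plate median of DMSO wells and 100% = zero luminescence signal; higher percent means less beta-gal luminescence so fewer parasites; stock transfer was 50 nL into about 50 µL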
ALR H2O2 inh: inhibitors of human ALR sulfhydryl oxidase, primary screen, biochemical, H2O2 detection, HRP-luminol luminescence, single point. FAD-linked sulfhydryl oxidase ALR (Homo sapiens), P55789. purified ALR, DTT oxidation. inhibition, % (concentration not given with the values). actives 3.8% (n = 290,000). AID 485317, 2010;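 active = mean and each replicate at 75% or more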;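 also: stock transfer was 7.5 nL into about 7.5 µL; 0% = neutral wells and 100% = wells with inactivated enzyme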
Target sequence (P55789 whole entry, looked up): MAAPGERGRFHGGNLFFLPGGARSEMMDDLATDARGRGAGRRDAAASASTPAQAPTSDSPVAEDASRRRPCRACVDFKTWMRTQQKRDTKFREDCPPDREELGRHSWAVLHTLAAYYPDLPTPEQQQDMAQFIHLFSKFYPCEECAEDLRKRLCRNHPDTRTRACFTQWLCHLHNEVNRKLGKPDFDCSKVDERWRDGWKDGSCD
Calb FLC: C. albicans growth inhibition with fluconazole, primary screen, CaCi-2 strain, Alamar Blue fluorescence | C. albicans CaCi-2 (fluconazole-resistant clinical isolate) + fluconazole, 48 h | growth inhibition, % (concentration not given with the values) | actives 0.57% (n = 300,000);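 active = most replicates above 75%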;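 also: all wells also contain fluconazole at 8 µg/ml as a sub-toxic cotreatment; 0% = median of DMSO wells and 100% = median of geldanamycin control wells; wells of about 8 µL received 7.5 nL stock; the first replicate is given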
Beta apoptosis: inhibitors of cytokine-induced beta cell apoptosis, primary screen, luminescence | INS-1E cytokine-induced death, ATP luminescence, 48 h; percent of positive-control rescue, neutral wells zero | protection from apoptosis, % (no concentration beside the values) | actives 0.8% (n = 300,000) | AID 435005, 2010;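 active = all replicates at 75% or more, or half of them and the mean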;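 also: 0% = cytokine-treated negative control wells and 100% = positive control rescue; higher means more ATP so stronger rescue from cytokine killing; wells of about 40 µL received 100 nL stock; the first replicate is given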
LANA-H2B inh: blockers of LANA interaction with H2A/H2B – biochemical, FP readout, HTS, primary screen; cell-free LANA-H2A/H2B peptide, fluorescence polarization; actives 0.6% (n = 320,000); inhibition, % (no concentration beside the values); AID 2629, 2010; Protein LANA1 (Human herpesvirus 8 type P (isolate GK18)), Q9QR71; in the data active = inhibition mostly above about 10%, no sharp cut-off; inactive = mostly below about 6.7%;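 also: stock transfer was 7.5 nL into about 10 µL; 0% = median of vehicle wells and 100% = median of positive control wells; one replicate is shown; the record names a cut of 25% in any replicate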
* = called active by the depositor. These rows are one share of the data; count on the stated rates, not on these rows.

Results for COc1ccc(C2=CC(=O)C=CC2=O)cc1 ?
T cruzi repl: -10; Calb FLC: 11; LANA-H2B inh: -10

How did CCN(CC)c1ccc(/C=C2\C(=O)c3ccc(C(=O)O)cc3C2=O)cc1 do in these assays?
Bfl-1 A1 inh: -4.1; Beta apoptosis: -4; LANA-H2B inh: -8.5

Results for Cc1nc2ccccn2c1/C(O)=C1\C(=O)C(=O)N(CCCN(C)C)C1c1ccc(F)cc1 (stereo unspecified) ?
Bfl-1 A1 inh: 2.4; ALR H2O2 inh: 20; LANA-H2B inh: 12

What do the screens show for `Cn1c(=O)c2[nH]c(C=Cc3ccc4c(c3)OCO4)nc2n(C)c1=O`?
Beta2AR agonist: -1

Results for Cn1c(=O)c2c(n(Cc3ccccc3)c1=O)NC(=O)C2CC(=O)N1CCc2ccccc2C1 (stereo unspecified) ?
Beta2AR agonist: -4

How did Cc1c(NC(=O)CN2C(=O)NC3(CCCCC3C)C2=O)cccc1[N+](=O)[O-] (stereo unspecified) do in these assays?
Beta2AR agonist: -4

How did CC(C)N(C)C1=CC(=O)C(N(C)C(C)C)=CC1=O do in these assays?
Beta2AR agonist: -4

How did Oc1ccc(Cl)cc1Sc1cc(Cl)ccc1O do in these assays?
Beta2AR agonist: 20

How did CCOC(=O)c1sc(=S)[nH]c1C do in these assays?
Beta2AR agonist: -5

What do the screens show for `Cc1nn(Cc2ccc(Cl)cc2Cl)c(C)c1NC(=O)c1nc2n(n1)C(C(F)F)CC(C)N2` (stereo unspecified)?
Beta2AR agonist: -2

How did CC(C)(C)NC(=O)C[C@H]1C[C@H](C(=O)N2CCOCC2)[C@@]2(C)c3[nH]c4cc(-c5ccco5)ccc4c3CCN2C1=O do in these assays?
Beta2AR agonist: 4

Results for COC(=O)[C@@]1(Cc2ccccc2)[C@H]2C(=O)N(Cc3ccccc3)C(=O)[C@H]2[C@H]2CN=C(SCc3ccc(C)cc3)N21 ?
Beta2AR agonist: 0

What do the screens show for `O=C1NCCN(CC2CCN(CCc3ccc(Cl)c(Cl)c3)CC2)C1=O`?
Beta2AR agonist: 2

How did CC(C)(C)n1ncc2c(=O)n(CC(=O)N3CCN(c4ccccc4)CC3)cnc21 do in these assays?
Beta2AR agonist: 1

Results for O=c1sc2ccccc2n1COc1ccccc1 ?
Beta2AR agonist: 1

What do the screens show for `O=C(O)C1CC2C3CC(C(=O)O)C(C3)C2C1` (stereo unspecified)?
Beta2AR agonist: 4

Results for CCCCCc1c2c(cc(O)c1C(=O)O)OC(=O)c1cc(C(=O)CCCC)c(OC)cc1O2 ?
Beta2AR agonist: 7

How did O=C(CCc1ccco1)CCc1ccco1 do in these assays?
Beta2AR agonist: 6

Results for COc1ccc2nc(N3C(=O)/C(=C/c4ccc(Cl)cc4)NC3=S)sc2c1 ?
Beta2AR agonist: 20

Results for CN(C)CCCNC(=O)C[C@H]1C[C@H](C(=O)N2CCCCC2)[C@@]2(CCc3ccccc3)c3[nH]c4ccc(Cl)cc4c3CCN2C1=O ?
Beta2AR agonist: 40

Results for COc1ccc(CC(=O)Nc2ccc(S(=O)(=O)N(C)C3CCN(C)CC3)cc2)cc1 ?
Beta2AR agonist: -25

Results for CCCCNc1cccc2c1S(=O)(=O)N(CCCC)CC(COCc1ccccc1)O2 (stereo unspecified) ?
Beta2AR agonist: 8

Results for Cc1cccc(N(C(=O)Cc2cccs2)C(C(=O)NC2CCCC2)c2ccsc2)c1 (stereo unspecified) ?
Beta2AR agonist: -11

What do the screens show for `COc1cc(-c2ccc(NC(=O)c3ccc(C)cc3)c(OC)c2)ccc1NC(=O)c1ccc(C)cc1`?
Beta2AR agonist: 9

Results for CCOc1nc(-c2ccc(OC)cc2)ccc1-c1noc(-c2ccncc2)n1 ?
Beta2AR agonist: 3

Results for OCC(O)C(O)CC1SCCS1 (stereo unspecified) ?
Beta2AR agonist: -3

What do the screens show for `C[C@]12CC[C@H](O)CC1=C[C@H](O)C1C2CC[C@@]2(C)C1CC[C@@]2(O)C#Cc1ccc(CN)cc1` (stereo partly specified)?
Beta2AR agonist: 0

What do the screens show for `CN1CCN(C(c2ccc(F)cc2)c2ccc3cccnc3c2O)CC1` (stereo unspecified)?
Beta2AR agonist: 5

How did O=C(O)c1cccc(S(=O)(=O)NCC2COc3ccccc3O2)c1 (stereo unspecified) do in these assays?
Beta2AR agonist: -33

Results for CCOc1ccccc1NC(=O)COC(=O)c1cnc(C)cn1 ?
Beta2AR agonist: -1

What do the screens show for `CCCn1c(=NC(=O)c2ccncc2)c(C#N)cc2c(=O)n3cccc(C)c3nc21`?
Beta2AR agonist: -6

Results for COc1ccccc1NC(=O)CN1CCN(CC(=O)Nc2ccc(Cl)c(C(F)(F)F)c2)CC1 ?
Beta2AR agonist: 9

Results for COc1cc(OC)c2c(-c3cccc(-c4ccc(C(C)=O)cc4)c3)cc(=O)oc2c1 ?
Beta2AR agonist: 21

How did O=C(CC1(O)CCCCC1)OC1CCCC1 do in these assays?
Beta2AR agonist: -5

How did NC(N)=S do in these assays?
Beta2AR agonist: -9

What do the screens show for `O=C1CC(c2ccccc2)Oc2ccccc21` (stereo unspecified)?
Beta2AR agonist: -8

What do the screens show for `O=[N+]([O-])c1ccc(NC(c2ccccc2)c2ccc3cccnc3c2O)cc1` (stereo unspecified)?
Beta2AR agonist: 6

What do the screens show for `CCc1ccc(-n2c(O)c(C=NCCN(CC)CC)c(=O)[nH]c2=O)cc1`?
Beta2AR agonist: 12

What do the screens show for `O=C(O)c1cc(O)ccc1O`?
Beta2AR agonist: 0

What do the screens show for `Oc1[nH]c2ccccc2c1N=Nc1ccccc1Cl`?
Beta2AR agonist: -6

Results for Oc1ccc2ccccc2c1CN1CC2CCC(CC2)C1 ?
Beta2AR agonist: 8

What do the screens show for `CC[C@]1(C(=O)OC)[C@H]2C(=O)N(Cc3ccccc3)C(=O)[C@H]2[C@H]2CN(C)C(=NCc3ccccc3)N21`?
Beta2AR agonist: -9

What do the screens show for `Cc1ccc(C)c(N2CCN(C(=O)CCc3nc(-c4ccccc4C(F)(F)F)no3)CC2)c1`?
Beta2AR agonist: 6

What do the screens show for `Cc1nnc2c3ccccc3c(-c3cccc4ccccc34)nn12`?
Beta2AR agonist: 7

Results for CCOc1ccc2nc3cc(N=Nc4ccc(N)nc4N)ccc3c(N)c2c1 ?
Beta2AR agonist: 30

Results for OC[C@H]1O[C@@](CO)(O[C@H]2O[C@H](CO)[C@@H](O)[C@H](O)[C@H]2O)[C@@H](O[C@H]2O[C@H](CO)[C@@H](O)[C@H](O)[C@H]2O)[C@@H]1O ?
Beta2AR agonist: -2

How did COc1ccc(S(=O)(=O)N2CCOCC2)cc1NC(=O)COC(=O)CCS(=O)(=O)c1ccc(C)cc1 do in these assays?
Beta2AR agonist: -5

How did CC(=O)Oc1ccc2c(c1)CCC1C2CCC2(C)C(OC(C)=O)CCC12 (stereo unspecified) do in these assays?
Beta2AR agonist: 2

How did COc1ccccc1[C@H]1C(c2cccc(Cl)c2)=NN(c2ccccc2)[C@@H]1CO do in these assays?
Beta2AR agonist: 8

What do the screens show for `Cc1noc(C)c1COc1cccc(C(=O)Nc2ccccc2)c1`?
Beta2AR agonist: -2

How did Cc1ccc(-n2cnc3c(=O)[nH]cnc32)cc1[N+](=O)[O-] do in these assays?
Beta2AR agonist: -7

How did O=C(NC1CC1)c1ccc(NC(=O)C2CCC2)cc1 do in these assays?
Beta2AR agonist: -4

What do the screens show for `Cc1cccc(C2=NN(c3ccc(Br)cc3)[C@@H](C(=O)N3CCOC3=O)[C@@H]2c2ccccc2)c1`?
Beta2AR agonist: 6

How did N[C@@H](Cc1ccc(F)cc1)C(=O)O do in these assays?
Beta2AR agonist: -7

How did CC(OC(=O)c1c2c(nc3ccccc13)/C(=C\c1ccc3c(c1)OCO3)CCC2)C(=O)Nc1ccc(S(N)(=O)=O)cc1 (stereo unspecified) do in these assays?
Beta2AR agonist: 21

What do the screens show for `CCOC(=O)CC1=C(C(=O)OCC)C(c2ccncc2)C(C#N)=C(N)O1` (stereo unspecified)?
Beta2AR agonist: 5

Results for O=c1c2ccccc2oc2c1ccc1ccccc12 ?
Beta2AR agonist: -1

How did Clc1ccc(C=NN2CCCCCC2)cc1Cl do in these assays?
Beta2AR agonist: -2

Results for N#Cc1ccc(OCC(=O)Nc2ccc(S(=O)(=O)N3CCOCC3)cc2)cc1 ?
Beta2AR agonist: -5

How did CC(C)C[C@H]1CNC(=S)N1CC1CCCN1C[C@H](CC(C)C)N1C[C@H](Cc2ccc(O)cc2)N(CC2CCCCCC2)C1=S (stereo partly specified) do in these assays?
Beta2AR agonist: 23

As a short view, part of the list above:
What do the screens show for `CCCn1c(=NC(=O)c2ccncc2)c(C#N)cc2c(=O)n3cccc(C)c3nc21`?
Beta2AR agonist: -6

Results for COc1ccccc1NC(=O)CN1CCN(CC(=O)Nc2ccc(Cl)c(C(F)(F)F)c2)CC1 ?
Beta2AR agonist: 9

Later entries
How did CCCCCC1C(C(=O)OCC)C(=O)NC1(C(=O)OCC)C(=O)OCC (stereo unspecified) do in these assays?
Beta2AR agonist: 3

Results for O=C(CCCn1c(=S)[nH]c2cc3c(cc2c1=O)OCO3)N1CCN(c2ccccn2)CC1 ?
Beta2AR agonist: -5

Results for O=[N+]([O-])c1ccccc1C=NN1CCCCCC1 ?
Beta2AR agonist: -3

What do the screens show for `COc1cccc(C(c2c(NC(=O)c3ccco3)sc(C)c2C)N2CCOCC2)c1` (stereo unspecified)?
Beta2AR agonist: 5

What do the screens show for `C(=NOCc1ccccc1)c1cccnc1`?
Beta2AR agonist: -11

What do the screens show for `O=C(O)c1ccccc1NS(=O)(=O)c1ccc(N/N=C/c2cccc(O)c2O)c([N+](=O)[O-])c1`?
Beta2AR agonist: -2

Results for C=CC[N+](C)(C)c1ccc(CCC(=O)CCc2ccc([N+](C)(C)CC=C)cc2)cc1 ?
Beta2AR agonist: 7

Results for CCOC(=O)c1c(C)c(C(=O)NC2CCCCCC2)c(C)n1C ?
Beta2AR agonist: -4

Results for CC1CC(=Cc2ccc([N+](=O)[O-])cc2)C(=O)O1 (stereo unspecified) ?
Beta2AR agonist: -7

How did C=CS(=O)(=O)c1c2cc(OC)ccc2nc2ccc(OC)cc12 do in these assays?
Beta2AR agonist: 28

How did O=C(O)C1C2CCC(CC2)C1C(=O)O (stereo unspecified) do in these assays?
Beta2AR agonist: -8

What do the screens show for `CC(C)c1nc2sc3c(SCCN(C)C)ncnc3c2c2c1CCC2`?
Beta2AR agonist: -13

What do the screens show for `COc1ccc(C(=O)N2CCN(S(=O)(=O)c3ccc(C)cc3C)CC2)cc1S(=O)(=O)N1CCOCC1`?
Beta2AR agonist: -4

What do the screens show for `O=[N+]([O-])c1cc2oc3c(c2c(C=NCc2ccncc2)c1O)CCCC3`?
Beta2AR agonist: -1

What do the screens show for `CC(C)NCc1c(O)c(Br)cc2oc3c(c12)CCCC3`?
Beta2AR agonist: -2

What do the screens show for `CC(NC(=O)c1ccc(N(C)C)cc1)C1CC2CCC1C2` (stereo unspecified)?
Beta2AR agonist: -1

Results for O=C(Nc1ccccn1)c1ccccc1 ?
Beta2AR agonist: -4

How did O=C(COC(=O)CCC(=O)c1cccs1)NCc1ccco1 do in these assays?
Beta2AR agonist: -5

Results for CCOC(=O)C1C(C(=O)OC)=C(c2ccc(OC)cc2)c2ccc(OC)cc2N1S(=O)(=O)C(F)(F)F (stereo unspecified) ?
Beta2AR agonist: 2

How did c1cc2c3c(cccc3c1)NN=N2 do in these assays?
Beta2AR agonist: 8

How did COc1ccc(Cl)cc1NC(=O)CN(C)C(=O)CN1C(=O)NC(C)(c2ccc3ccccc3c2)C1=O (stereo unspecified) do in these assays?
Beta2AR agonist: 1
